StopGo RLuc = FMDV 2A StopGo reporter, Renilla signal; 120,000 compounds, 0.32% hits; HEK cells with a luciferase reporter of 2A StopGo recoding; AID 1745857; Potency, µM (top dose mostly 57.5 µM), for inactives: at the highest dose signal change, negative = less light; active means well fitted falling curve with a large enough effect; inconclusive means small, poorly fitted or top-dose-only effect; inactive means no such curve, though single readings can be large or run the other way; also: nearly all actives have a fitted effect of over 55% in size; overnight with compound
2A firefly = FMDV 2A StopGo reporter, firefly signal. Potency, µM (titrated, usually from 57.5 µM), for inactives: top-dose signal change, negative = less light. 120,000 compounds, 0.23% hits. HEK cells with a luciferase reporter of 2A StopGo recoding; active = well fitted falling curve with a large enough effect; inconclusive = small, poorly fitted or top-dose-only effect; inactive = no such curve, though single readings can be large or run the other way; also: nearly all actives have a fitted effect of over 60% in size; overnight with compound
Active calls of the source: *; u = inconclusive; [ ] = dose if it differs, or a comment. % is scaled to controls: 0 for no effect and ±100 for the full control effect; potency is read from the fitted curve at half-maximal effect.

Under each structure: 2A firefly | StopGo RLuc
N#CCC(=O)NN
→ -16% | -8%
O=S(=O)(NCC(c1ccco1)N1CCOCC1)c1ccc(Cl)cc1 (stereo not given)
→ 0% | 66%[activator]
Cc1ccc(-n2nc3c(=O)n(CCCC(=O)NCc4ccccc4C)nc(C)c3c2C)cc1
→ 9% | 3%
O=C(O)c1ccc(-c2ccc(Cl)cc2)s1
→ 54%[activator] | -3%
N#Cc1ccc(-c2csc(NC(=O)c3ccc(S(=O)(=O)N4CCCCCC4)cc3)n2)cc1
→ 4% | 43%[activator]
O=C(NN=C(c1ccccc1)c1ccccc1)c1ccc[n+]([O-])c1
→ -1% | -5%[1.06 µM]
Clc1cccc(CSc2nc(NCCc3ccccc3)c3ccccc3n2)c1
→ -5% | -11%
COc1ccc(NC(=O)/C(C#N)=C/c2c[nH]c3ccccc23)c(OC)c1
→ -7% | -17%
Cc1nnc(SCc2nc3ccccc3o2)n1-c1ccccc1
→ 6% | -7%
COCCNC(=O)C1CCN(c2nc3ccccc3nc2C(F)(F)F)CC1
→ -20% | 1%
CC1CCN(C(=O)c2cc(-c3ccc(Cl)cc3)on2)CC1
→ 151%[activator] | 6%
CCOc1ccc(NC(=O)COc2ccc(OC)cc2)c2cccnc12
→ 8% | -12%
CCN1CCN(CCNC(=O)c2ccc3nc(-c4ccccc4)c(-c4ccccc4)nc3c2)CC1
→ -22% | -17%
CSCc1ccc(C(=O)Nc2ccc(F)cc2)o1
→ 78%[activator] | -24%
COc1ccc(NC(=O)CCNS(=O)(=O)c2cccc3nsnc23)cc1OC
→ -4% | 6%
COc1cccc(NC(=O)Cn2c(=O)n(-c3ccc(CC(=O)NCC4CCCO4)cc3)c(=O)c3ccccc32)c1 (stereo not given)
→ 3% | -6%
COc1ccccc1NC(=O)c1c(NC(=O)COc2ccccc2)sc2c1CCCCC2
→ -15% | -6%
Cc1cc2nc(/C(C#N)=C/c3cccc(C(F)(F)F)c3)[nH]c2cc1C
→ 140%[activator] | -8%
O=C(O)CCNC(=O)c1cc(-c2ccccc2)nc2ccccc12
→ 5% | -1%
Cc1ccccc1-c1noc(-c2ccccc2C(=O)NCC2CCCO2)n1 (stereo not given)
→ 17% | 24%
O=C(NCCCNC1CCCCC1)c1cc2ccccc2[nH]1
→ -4% | -11%
Cc1nn(-c2ccc(N3CCCC3)nn2)c(C)c1CCC(=O)N1CCN(c2ccccc2)CC1
→ -18% | -9%
O=C(O)CCn1cc(C(C(=O)O)N2CCN(Cc3ccccc3)CC2)c2ccc(F)cc21 (stereo not given)
→ 0% | -8%
CCN(CC)C(=O)Oc1ccc2c(C)c(-c3ccc(OC)cc3)c(=O)oc2c1
→ u | u
Cc1ccccc1NC(=O)Cn1c(=O)n(Cc2ccccc2)c(=O)c2c(C)c(C)sc21
→ 1% | -2%
O=S(=O)(c1cccc(Cl)c1)c1nnn2c1nc(NCc1ccc3c(c1)OCO3)c1sccc12
→ -18% | -1%
CCCC(=O)Nc1ccc(S(=O)(=O)NCCn2nc(-c3ccccc3)ccc2=O)cc1
→ 0% | 50%[activator]
CCn1c(=O)c2sccc2n2c(CCC(=O)Nc3ccc(F)cc3)nnc12
→ -2% | 5%
Cc1ccccc1C(=O)Nc1cccc(OCc2cc(=O)n3c4c(sc3n2)CCCC4)c1
→ 0% | -4%
COc1ccc(CCNC(=O)C2(c3cccs3)CCOCC2)cc1OC
→ -19% | -11%
CCN(CC)CCNc1nc2c(c(=O)[nH]c(=O)n2C)n1Cc1ccc(Cl)cc1
→ -1% | -12%
O=C(Nc1cccc(C(F)(F)F)c1)N1CC2CCCN2c2ccccc21 (stereo not given)
→ -6% | -10%
CCOC(=O)c1c(C)[nH]c(C(=O)C(C)OC(=O)Cn2cc(C(F)(F)F)ccc2=O)c1C (stereo not given)
→ -2% | 0%
O=S(=O)(Nc1nc2ccccc2nc1NCc1ccc(Cl)cc1)c1cccc2nsnc12
→ -1% | 124%[activator]
S=C(NCc1ccc(Cl)cc1)NCc1ccc(Cl)c(Cl)c1
→ 13% | 175%[activator]
COc1ccc2oc(=O)c(C(=O)N3CCN(c4ccc(C)cc4)CC3)cc2c1
→ -7% | -4%
CCOCCCNC(=O)c1cc(C2CC2)nc2ccccc12
→ 0% | -5%
Cc1ccc(-c2noc(-c3nnn(CC(=O)Nc4ccc(C)c(Cl)c4)c3N)n2)cc1
→ 0% | -8%
CC1(C)CC(=O)C2=C(C1)Nc1cc(C(=O)c3ccccc3)ccc1NC2c1ccc(O)cc1 (stereo not given)
→ -6% | -2%
Nc1cccc2c(N)cccc12
→ 19% | -4%
O=C(Nc1cccc(CO)c1)c1cn(Cc2ccccc2)nc1-c1ccc(Cl)cc1
→ 14% | 62%[activator]
COc1ccc(N2Cc3cccc(C(=O)NCc4ccc(F)cc4)c3C2=O)cc1
→ 8% | 69%[activator]
COc1ccc(CCNC(=O)Cn2cc(S(=O)(=O)Cc3ccc(F)cc3)c3ccccc32)cc1OC
→ -9% | -5%
O=S(CCc1ccncc1)Cc1ccc2c3c(cccc13)CC2 (stereo not given)
→ 6% | -9%
COc1ccc(Nc2nc(-c3ccc(C)cc3C)cs2)cc1
→ 162%[activator] | 29%
CCc1ccc(N(Cc2cccs2)C(=O)c2ccccc2C)cc1
→ -8% | -9%
CC(C)=CC1C(C(=O)NCc2ccccc2OC(F)F)C1(C)C (stereo not given)
→ 63%[activator] | -4%[1.06 µM]
N#C/C(=C/c1ccsc1)c1ccc(C(F)(F)F)cn1
→ 127%[activator] | 9%
CC(NC(=O)OCc1ccccc1)C(=O)NCC1CC1 (stereo not given)
→ 6% | -3%
CCN1CCN(CC(=O)c2c[nH]c3ccccc23)CC1
→ -12% | -12%
O=C(NCCN1CCOCC1)c1nn(Cc2ccccc2)c(=O)c2ccccc12
→ 9% | 20%
CC(=O)c1cccc(NC(=O)CSc2nnc3ccc(-c4ccc(Br)cc4)nn23)c1
→ -11% | 1%
COc1ccc(-c2coc3c2c(C)cc2oc(=O)cc(C)c23)cc1
→ -14% | -17%
CN(Cc1cnn(C)c1)C(=O)c1nn(-c2ccccc2)c(=O)c2ccccc12
→ 14% | 18%
COc1cc(NC(=O)c2noc3c2CC(C(C)(C)C)CC3)cc(OC)c1OC (stereo not given)
→ -8% | -6%
CCC(=O)N1c2ccccc2CC1C(=O)NCCN1CCN(c2cccc(C(F)(F)F)c2)CC1 (stereo not given)
→ -16% | -9%
Cc1ccc(NC(=O)NC(C)c2c(-n3cccc3)sc(C)c2C)c(C)c1 (stereo not given)
→ 0% | 0%
COc1ccccc1NC(=O)c1sc2nc(C)c(C(=O)Nc3ccc(C)cc3C)c(-c3ccco3)c2c1N
→ -12% | 2%
CC(O)c1nc2ccccc2n1CC(=O)C(C)(C)C (stereo not given)
→ -8% | -1%
O=C(COc1ccc(Cl)cc1)Nc1c(NC2CCCC2)c2ccccc2oc1=O
→ -4% | 27%

Single entries from the results shown.
O=C(Nc1cccc(C(F)(F)F)c1)N1CC2CCCN2c2ccccc21 (stereo not given) in StopGo RLuc = -10%
CC1(C)CC(=O)C2=C(C1)Nc1cc(C(=O)c3ccccc3)ccc1NC2c1ccc(O)cc1 (stereo not given) in 2A firefly = -6%

Other records
Under each structure: 2A firefly | StopGo RLuc
CC1CCN(CC(=O)N2CCCc3c2c(=O)oc2ccc(OCc4ccccc4)cc32)CC1
→ 0% | -4%
CCC(C(=O)c1ccc(OC)cc1)C(=O)c1ccc(OC)cc1
→ 0% | 0%
CCCn1c(=O)[nH]c(=O)c2c1nc(-c1ccc(Cl)cc1)n2CCOC
→ 16% | -5%
CC(C)CCn1nc(C(=O)OC(C)C(=O)N2CCCc3ccccc32)c2ccccc2c1=O (stereo not given)
→ 0% | 21%
CCC(=O)NCCC12CC3CC(CC(C3)C1)C2
→ 10% | 6%
CC(=O)Nc1cc(-c2ccc(=O)n(CC(=O)Nc3c(C)cc(C)cc3C)n2)ccc1C
→ 11% | 1%
Cc1cccc(NC(=O)CCC2CCCC2)c1C
→ 0% | 39%[activator]
CC(NC(=O)CC12CC3CC(CC(C3)C1)C2)c1ccccn1 (stereo not given)
→ 10% | 15%
O=C(CSc1nc2ccccc2nc1Cc1ccc(F)cc1)Nc1ccc2c(c1)OCO2
→ -2% | -2%
COc1ccc(NC(=O)C(C)Nc2ccc3oc(C)nc3c2)cc1 (stereo not given)
→ 20% | -7%
O=C(CSc1nc2ccccc2s1)Nc1ccc(F)c(F)c1F
→ 25% | 10%
CCOc1ccc(CNS(=O)(=O)c2ccc3[nH]c4c(c3c2)CCCC4)cc1OC
→ u | u
CCOc1ccc(-n2nnc3c(=O)n(Cc4nc(-c5ccccc5Br)no4)cnc32)cc1
→ 24% | 0%
CCOc1ccc(NC(=O)c2cnc(Nc3ccccc3OC)c3ccccc23)cc1
→ 81%[activator] | 0%
N#CC(C(=O)Cc1ccc(Cl)cc1)C(=O)Nc1ccccc1Cl (stereo not given)
→ 8% | 0%
O=C(NCc1ccc2c(c1)OCO2)c1cc2ccccc2[nH]1
→ 78%[activator] | 75%[activator]
COc1cccc(C(=O)Nc2ccc(-n3nncc3-c3ccc(Br)cc3)cc2)c1OC
→ -23% | 6%
Cc1cccc(NC(=O)NC(C(=O)N2CCc3ccccc32)c2ccccc2)c1 (stereo not given)
→ 11% | 34%[activator]
CCCn1c(=O)c2sccc2n2c(CCCC(=O)NCCc3ccc(Cl)cc3)nnc12
→ -8% | 26%
Cc1ccc(Cl)cc1NS(=O)(=O)c1ccc(N2CCCCS2(=O)=O)cc1
→ 17% | -7%
Cc1cc(C(=O)OCC(=O)c2ccc(OCc3ccccc3)cc2)c2ccccc2n1
→ 137%[activator] | 6%
Cc1ccccc1Cn1c(SCc2ccc(C(=O)NCc3cccs3)cc2)nc2ccncc21
→ 43%[activator] | 1%
CC1CCCN(C(=O)c2ccc(CN(c3ccccc3)S(C)(=O)=O)cc2)C1 (stereo not given)
→ u | -22%
CC(C)CCn1cnc2c1c(O)nc(=O)n2Cc1ccccc1
→ 15% | -1%
CC(C)c1ccc(NC(=O)C2CCN(S(=O)(=O)c3cccc4nonc34)CC2)cc1
→ -31% | -15%
CCN(CC(=O)Nc1ccccc1C(F)(F)F)Cc1nc2ccccc2o1
→ 11% | 5%
COc1ccc(C(=O)NCC2(c3ccc4c(c3)OCCO4)CCCC2)cc1
→ 8% | 15%
CCOC(=O)C1=C(C)NC(=O)NC1c1nc2ccccc2n1CC (stereo not given)
→ 3% | -8%
CNc1nc(-c2c(C(=O)OC)c(C)n(C3CC3)c2C)cs1
→ 9% | 10%
C#CCN(CC)CC(=O)NCc1cccs1
→ 12% | 7%

Filtered by structure: the entries above with a tert-butyl group
Under each structure: 2A firefly | StopGo RLuc
COc1cc(NC(=O)c2noc3c2CC(C(C)(C)C)CC3)cc(OC)c1OC (stereo not given)
→ -8% | -6%
CC(O)c1nc2ccccc2n1CC(=O)C(C)(C)C (stereo not given)
→ -8% | -1%

Next part:
Under each structure: 2A firefly | StopGo RLuc
O=C(Nc1cccc2ccccc12)c1cc(F)c(F)cc1Cl
→ 21% | -2%[1.06 µM]
Cc1ccc2c(=O)cc(C(=O)Nc3nnc(C(C)C)s3)oc2c1C
→ -18% | -14%
COc1cc(/C=N/O)c(Br)cc1OCC(=O)NN
→ 50%[activator] | 74%[activator]
CC(C)NC(=O)Nc1c(NC2CCCC2)c2ccccc2oc1=O
→ 5% | -5%
COc1ccc(CNC(=O)C(=O)Nc2cccc(C)c2)cc1
→ 44%[activator] | -4%
Cc1ccc(CCNC(=O)CCc2nc(CS(=O)(=O)c3ccc(F)cc3)no2)cc1
→ 19% | 11%
Cc1ccc(Sc2ccc(N3CCC(C(=O)Nc4ccc(Cl)cc4)CC3)nn2)cc1
→ -1% | 0%
CCCCCCNC(=S)Nc1ccc(F)cc1
→ u | -84%
O=S(=O)(NCCc1cn2ccccc2n1)c1ccc(Cl)c(Cl)c1
→ 21% | 72%[activator]
Cc1cc(C)c(NC(=O)Cn2nnc(-c3nc(-c4ccncc4)no3)c2N)c(C)c1
→ 0% | 3%
CCOC(=O)c1noc2nc(C)n(CC(=O)Nc3cccc(OC)c3)c(=O)c12
→ 6% | -4%

Molecules above containing a thiophene ring, fused or not (13):
Under each structure: 2A firefly | StopGo RLuc
O=C(O)c1ccc(-c2ccc(Cl)cc2)s1
→ 54%[activator] | -3%
COc1ccccc1NC(=O)c1c(NC(=O)COc2ccccc2)sc2c1CCCCC2
→ -15% | -6%
Cc1ccccc1NC(=O)Cn1c(=O)n(Cc2ccccc2)c(=O)c2c(C)c(C)sc21
→ 1% | -2%
O=S(=O)(c1cccc(Cl)c1)c1nnn2c1nc(NCc1ccc3c(c1)OCO3)c1sccc12
→ -18% | -1%
CCn1c(=O)c2sccc2n2c(CCC(=O)Nc3ccc(F)cc3)nnc12
→ -2% | 5%
COc1ccc(CCNC(=O)C2(c3cccs3)CCOCC2)cc1OC
→ -19% | -11%
CCc1ccc(N(Cc2cccs2)C(=O)c2ccccc2C)cc1
→ -8% | -9%
N#C/C(=C/c1ccsc1)c1ccc(C(F)(F)F)cn1
→ 127%[activator] | 9%
Cc1ccc(NC(=O)NC(C)c2c(-n3cccc3)sc(C)c2C)c(C)c1 (stereo not given)
→ 0% | 0%
COc1ccccc1NC(=O)c1sc2nc(C)c(C(=O)Nc3ccc(C)cc3C)c(-c3ccco3)c2c1N
→ -12% | 2%
CCCn1c(=O)c2sccc2n2c(CCCC(=O)NCCc3ccc(Cl)cc3)nnc12
→ -8% | 26%
Cc1ccccc1Cn1c(SCc2ccc(C(=O)NCc3cccs3)cc2)nc2ccncc21
→ 43%[activator] | 1%
C#CCN(CC)CC(=O)NCc1cccs1
→ 12% | 7%

Bioassay records (PubChem)
